# Compound activity (PubChem BioAssay)
# TRPML1 agonist – agonists of human TRPML1 channel. Q9GZU1. activation, % (no concentration beside the values). AID 624414. actives 0.12% (n = 410,000). TRPML1-expressing cells, Ca2+ dye fluorescence, FDSS; host cell line not named in the record; reference of the full effect not given here; in the data active = activation above about 50%; inconclusive = about 30% to 50%; inactive = below about 30%; also: 0% is about no effect; the text of the record puts the active cut at 80%
#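 Calcium fluorescence on an FDSS kinetic reader gave the read-out. Tet-induced TRPML1-DL cells were plated overnight, dye-loaded (Ca8 with quencher, 45-90 min, room temperature, dark), then read 110 s after compound addition, and again 110 s after 4uM final 54-4 (EC80).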
# Six1-Eya2 blk – inhibitors of human Six1/Eya2 interaction | Q15475+O00167 | AlphaScreen GST-Six1/His-Eya2 binding, biochemical; stronger effect = lower value; control for the full effect not named in the record | activity change, % (test concentration not listed) | actives 0.56% (n = 360,000); in the data active = activity change below about -65%; inconclusive = about -30% to -65%; inactive = above about -30%; also: % is scaled to controls: 0 for no effect and ±100 for the full control effect; compound concentration not given in the record
# Target sequence (O00167 whole entry, looked up): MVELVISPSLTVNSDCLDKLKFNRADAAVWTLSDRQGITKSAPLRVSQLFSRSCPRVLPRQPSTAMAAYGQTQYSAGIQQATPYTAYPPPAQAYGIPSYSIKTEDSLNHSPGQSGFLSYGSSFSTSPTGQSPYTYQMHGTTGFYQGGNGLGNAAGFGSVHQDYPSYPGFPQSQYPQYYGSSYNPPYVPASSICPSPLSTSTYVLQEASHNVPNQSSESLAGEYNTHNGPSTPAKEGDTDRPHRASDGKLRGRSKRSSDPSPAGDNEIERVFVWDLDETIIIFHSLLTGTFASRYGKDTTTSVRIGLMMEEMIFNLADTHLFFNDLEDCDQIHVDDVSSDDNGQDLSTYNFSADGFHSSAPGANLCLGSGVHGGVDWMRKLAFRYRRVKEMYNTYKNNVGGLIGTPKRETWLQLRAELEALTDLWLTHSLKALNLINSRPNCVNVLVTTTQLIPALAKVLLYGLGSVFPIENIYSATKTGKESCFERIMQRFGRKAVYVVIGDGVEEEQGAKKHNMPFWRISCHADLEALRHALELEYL
# Target sequence (Q15475 whole entry, looked up): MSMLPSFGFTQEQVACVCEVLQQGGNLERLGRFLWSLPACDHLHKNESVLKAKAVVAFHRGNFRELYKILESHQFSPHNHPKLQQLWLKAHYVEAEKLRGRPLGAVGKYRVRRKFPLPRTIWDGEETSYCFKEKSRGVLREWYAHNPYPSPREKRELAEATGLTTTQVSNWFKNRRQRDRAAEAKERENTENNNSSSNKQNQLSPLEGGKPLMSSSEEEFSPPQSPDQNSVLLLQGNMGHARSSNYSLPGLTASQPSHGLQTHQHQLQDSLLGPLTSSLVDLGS
#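 Compounds are tested against tagged Six1 and Eya2 proteins bridged by glutathione donor and nickel acceptor beads; after a one-hour incubation at 37 °C without light, AlphaScreen emission is recorded.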
# D2 ag – agonists of human D2 dopamine receptor (beta-arrestin) | DiscoveRx PathHunter D2 beta-arrestin, luminescence, 90 min; 100% = 57 uM dopamine signal | AID 624465 | actives 0.084% (n = 360,000) | activation, % (concentration not given with the values); in the data active = activation above about 40%; inconclusive = about 15% to 40%; inactive = below about 15%; also: compound concentration not given in the record; the text of the record calls up to 30% inactive
#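 DiscoveRx PathHunter D2 beta-arrestin cells (2,100/well) attached overnight, then compound-stimulated 90 min at 37 C in HBSS/10 mM HEPES/0.1% Tween-20 buffer; beta-galactosidase complementation read by luminescence after 1 h at ambient temperature. Dopamine 57 uM final (EC100) as control.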
# CtBP-E1A blk – blocks the CtBP interaction with E1A; AlphaScreen GST-E1A/His-CtBP binding, 1536-well; stronger effect = lower value; control for the full effect not named in the record; AID 651724; actives 0.49% (n = 340,000); activity change, % (test concentration not listed); in the data active means activity change below about -65%; inconclusive means about -30% to -65%; inactive means above about -30%; also: % is scaled to controls: 0 for no effect and ±100 for the full control effect; compound concentration not given in the record
#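 In 5 uL wells, 23 nL compound meets equimolar GST-E1A and His-CtBP (5X stock 125 nM each) for 2 h, 37 °C. Beads (5X, 50 ug/mL) then 1 h, 37 °C, dark.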
# PINK1 modulator – modulators of PINK1 expression; actives 0.2% (n = 410,000); Potency, µM (highest dose often 76.6 µM), inactives show at the highest dose activation (PINK1 increase), actives largely listed as activators; PINK1 immunofluorescence, high-content cytometry, 24 h; AID 624263; active = well fitted activation curve with a large enough effect; inconclusive = small, poorly fitted or top-dose-only effect; inactive = flat fitted curve, though single readings scatter; cell line not stated here;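 also: potency is read from the fitted curve at half-maximal effect; % of control where 0% means no effect; nearly all actives have a fitted effect of over 65% in size; a mitochondrial uncoupler was the plate control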
#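 A stable cell line was treated with compounds at 5 concentrations for 24 hours, with CCCP as control. PINK1 levels and mitochondrial localization were measured by immunofluorescence with mitochondrial, cell and nuclear markers after fixation, read by laser-scanning cytometry.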
# D2 PAM – potentiates the human D2 dopamine receptor allosterically | P14416 | DiscoveRx D2 beta-arrestin cells, luminescence, 90 min; 100% = 57 uM dopamine signal | potentiation, % (no concentration beside the values) | actives 0.23% (n = 360,000); active = potentiation of 50% or more; inconclusive = 30% to 50%; inactive = 30% or less;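 also: compound concentration not given in the record; tested on top of an EC20 dose of dopamine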
#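 PathHunter D2 cells, attached overnight at 37 deg C, received compound in DMSO plus dopamine at EC20 (50 nM final) for 90 min at 37 deg C. Beta-arrestin recruitment was read as luminescence after 1 h with detection reagent at ambient temperature.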
# Numbers without * were called inactive; ? = inconclusive; . = no result given; & = joins results of further samples; [ ] = dose if it differs, or a comment.
1: COc1cc(C(=O)NCCCN2CCCC2=O)cc(OC)c1OC
2: CCOC(=O)Cc1csc(NC(=O)CCCc2ccccc2)n1
3: Cc1ccc(-n2nc3c(=O)n(CC(=O)NCc4ccccn4)nc(C)c3c2C)cc1
4: CNC(=S)N/N=C/c1ccc(-c2ccc(Cl)c([N+](=O)[O-])c2)o1
5: CCc1nnc(N/N=C/c2c(F)cccc2Cl)n1N
6: C[C@@H]1CN([C@@H](C)CO)C(=O)c2cc(Br)cnc2O[C@@H]1CN(C)S(=O)(=O)c1ccc(F)cc1
7: NC(N)=NS(=O)(=O)c1ccc(N/C=C\C(=O)c2ccncc2)cc1
8: COc1ccc(/C=C/C(=O)OCC(=O)Nc2ccc(Cl)c(S(=O)(=O)N(C)C)c2)cc1OC

Assay by compound	1	2	3	4	5	6	7	8
Six1-Eya2 blk	-1.9	6.6	-6.3	-0.8	-6.1	7.4	8.2	-5.7
D2 PAM	-5.9	-1.9	-6.3	-1.3	15.1	-5.3	-6.4	3.8
CtBP-E1A blk	-0.4	8.5	.	-10.9	.	-24.2	?	-17.1
D2 ag	-2.1	-1.4	0.3	-3.1	41.0*	-3.9	4.2	-1.4
TRPML1 agonist	0.8	1.6	1.7	2.1	.	-0.5	-0.2	-0.8
PINK1 modulator	19.1%[38.3 µM]	6.8%	-0.1%	5.4%	-0.3%	-0.1%	-2.1%	-2.1%

9: Cc1nn(CCC(=O)NNC(=S)Nc2ccccc2)c(C)c1Br
10: C/C(=N\Nc1ccccc1[N+](=O)[O-])c1ccccc1O
11: CC(NC(=O)c1ccc(F)cc1)C(c1cccs1)N1CCN(C)CC1 (stereo unspecified)
12: COc1cc(OC)cc(C(=O)NCC(=O)N2CC=C(c3ccccc3)CC2)c1
13: COC(=O)c1ccc(CNC(=O)C(NC(=O)c2ccco2)C(C)C)cc1 (stereo unspecified)
14: Cc1sc2nc(CN3CCCC3)nc(Cl)c2c1C
15: O=C(CSc1nc2ccccc2[nH]1)Nc1nc(-c2ccccc2)c(-c2ccccc2)o1
16: Cc1nc2c(c(=O)n1CCC1=CCCCC1)c1nc3ccccc3nc1n2/N=C/c1ccccc1

Assay by compound	9	10	11	12	13	14	15	16
Six1-Eya2 blk	3.8	?	-2.3	-9.6	60.0	-10.3	-5.2	6.6
D2 PAM	-52.2	-4.7	-3.5	-10.6	-4.2	-15.4	17.2	-6.8
CtBP-E1A blk	0.3	?	-14.7	-1.8	2.0	-5.7	6.0	-13.5
D2 ag	-15.0	4.3	-3.3	-2.8	-4.3	-8.0	-6.5	0.0
TRPML1 agonist	0.2	0.9	0.9	1.6	0.0	-0.5	0.4	0.9
PINK1 modulator	0.7%	4.7%	-2.0%[38.3 µM]	13.5%	-0.8%	4.3%	4.1%	5.1%

17: CCOC(=O)C1=CCN(S(=O)(=O)c2ccccc2C)C1c1ccc(F)cc1 (stereo unspecified)
18: CN(CC(=O)NCc1ccco1)S(=O)(=O)c1ccc2c(c1)c(=O)n(C)c(=O)n2C
19: COc1cccc(CN2CCN(CCc3ccccc3)C(CCO)C2)c1OC (stereo unspecified)
20: CC(C)c1ccc(-c2nc(N3CCCCC3)[nH]c(=O)c2C#N)cc1
21: Oc1ccccc1N1CCN(c2nnnn2-c2ccccc2)CC1
22: COc1ccc(S(=O)(=O)N2CCOC2CNC(=O)C(=O)NCc2ccco2)cc1OC (stereo unspecified)
23: CC(=O)C1=C(O)C(=O)N(CCc2c[nH]c3ccccc23)C1c1cccc(O)c1 (stereo unspecified)
24: Cc1ccc(S(=O)(=O)NNC(=O)CCC(=O)Nc2ccc(C)c(C)c2)cc1

Assay by compound	17	18	19	20	21	22	23	24
Six1-Eya2 blk	4.2	-4.3	-2.7	8.7	-1.9	-5.1	-1.0	-19.1
D2 PAM	-4.7	-1.5	-4.2	-21.5	6.4	0.9	-15.0	-28.8
CtBP-E1A blk	4.9	-6.8	-0.7	6.8	-4.6	6.3	-0.1	-11.0
D2 ag	-1.8	2.7	-2.0	-1.3	-3.1	4.4	-0.7	-12.5
TRPML1 agonist	1.8	0.5	0.8	0.3	-0.1	1.3	-0.6	-0.4
PINK1 modulator	6.8%	-0.3%	0.4%	-1.2%	4.7%	0.8%	-1.8%	-0.9%

25: Cc1oc2cc3oc(=O)c(CCC(=O)NCCCN4CCOCC4)c(C)c3cc2c1C
26: CCCCn1c(N)c(N(CCC(C)C)C(=O)COC(=O)/C=C/c2ccc(F)cc2)c(=O)[nH]c1=O
27: O=C(COC(=O)c1cccs1)Nc1ccccc1C(F)(F)F
28: N#CCCSc1ncnc2c1oc1ccccc12
29: O=C(CSc1ncn[nH]1)Nc1ccccc1C(=O)O
30: CCOC(=O)CSc1nnc(-c2ccccc2)c(=O)[nH]1
31: NC(=O)CN1CCN(C(=O)NC2CCCCC2)CC1
32: Cc1cc(-c2ccc(C)c(S(=O)(=O)NCc3cccc(Br)c3)c2)on1

Assay by compound	25	26	27	28	29	30	31	32
Six1-Eya2 blk	0.4	0.7	5.2	-0.8	13.2	0.2	1.2	3.8
D2 PAM	-20.6	-13.0	-6.1	-16.4	-5.5	-2.1	0.5	-10.9
CtBP-E1A blk	0.2	-5.6	4.4	1.1	2.4	-9.5	5.0	2.4
D2 ag	-4.2	-0.7	-2.5	-1.7	-2.7	-1.5	-2.0	0.1
TRPML1 agonist	.	-0.3	-0.2	-0.7	-0.5	-0.6	0.0	-0.3&2.1
PINK1 modulator	-0.2%	3.9%	0.3%	-7.5%[38.3 µM]	-0.1%	-4.5%	2.2%	-1.7%&3.1%

# Quoted at random: four records from the list
32: Cc1cc(-c2ccc(C)c(S(=O)(=O)NCc3cccc(Br)c3)c2)on1
26: CCCCn1c(N)c(N(CCC(C)C)C(=O)COC(=O)/C=C/c2ccc(F)cc2)c(=O)[nH]c1=O
27: O=C(COC(=O)c1cccs1)Nc1ccccc1C(F)(F)F
28: N#CCCSc1ncnc2c1oc1ccccc12

Assay by compound	32	26	27	28
Six1-Eya2 blk	3.8	0.7	5.2	-0.8
D2 PAM	-10.9	-13.0	-6.1	-16.4
CtBP-E1A blk	2.4	-5.6	4.4	1.1
D2 ag	0.1	-0.7	-2.5	-1.7
TRPML1 agonist	-0.3&2.1	-0.3	-0.2	-0.7
PINK1 modulator	-1.7%&3.1%	3.9%	0.3%	-7.5%[38.3 µM]

# New compounds follow.
33: O=C(CSCCO)Nc1ccccc1
34: CC(C)N(C)S(=O)(=O)c1ccc(Cl)c(C(=O)O)c1
35: COc1cccc(NC(=O)C(=O)NCCCN2CCCC2=O)c1
36: CCOCCc1nnc(NC(=O)Cc2ccc(Br)cc2)s1
37: CCOc1ccccc1N(CC(=O)N1CCCC1)S(C)(=O)=O
38: CCOC(=O)c1c(C)[nH]c(C(=O)NNC(=O)c2ccccc2F)c1C
39: CSc1ccc(C(=O)C2CCCN(C(=O)c3nn(C)c(=O)c4ccccc34)C2)cc1 (stereo unspecified)
40: Cc1cc(=O)n(C)c(=O)n1CCCCOc1ccc([N+](=O)[O-])cc1

Assay by compound	33	34	35	36	37	38	39	40
Six1-Eya2 blk	3.8	10.9	5.7	-0.8	5.2	-5.7	5.8	0.5
D2 PAM	-4.3	0.2	-5.4	-4.1	-5.4	-25.0	4.7	-1.6
CtBP-E1A blk	9.7	2.7	0.5	0.1	8.8	-18.9	-2.9	.
D2 ag	-4.3	-3.9	-0.7	-1.3	0.4	-2.7	-10.7	0.6
TRPML1 agonist	-0.6	1.1	0.5	2.5	0.3	0.1	2.9	-0.2
PINK1 modulator	-1.1%	0.4%	2.9%	-0.6%[38.3 µM]	0.6%	1.0%	0.2%	-0.9%

41: CC(Sc1ncn[nH]1)C(=O)NCc1ccccc1 (stereo unspecified)
42: COCCn1cnc2c1c(=O)n(CC(=O)OCC(=O)NCCCc1ccccc1)c(=O)n2Cc1ccccc1
43: COc1ccc(/C(O)=C2/C(=O)C(=O)N(c3ncccn3)C2c2ccc(OC)c(OC)c2)cc1 (stereo unspecified)
44: CCOC(=O)[C@H]1[C@H]2COc3cc(OC)ccc3[C@@H]2N2C(=O)N(c3cccc(F)c3)C(=O)[C@@]12C
45: O=C(NCCc1ccccc1)c1cccnc1N1CCCCCC1
46: Cc1ccc2[nH]c3c(c2c1)CN(C(=O)CN1CCCCC1)CC3
47: CCN(CC)c1nc2cc(C)ccc2cc1/C=C(\C#N)C(N)=O
48: Cc1[nH]c(=O)[nH]c(=O)c1S(=O)(=O)NCC12CC3CC(CC(C3)C1)C2

Assay by compound	41	42	43	44	45	46	47	48
Six1-Eya2 blk	-5.7	-1.7	9.9	-6.2	3.7	-9.8	-9.4	1.5
D2 PAM	-13.3	-12.1	-28.6	1.8	11.2	-7.0	-8.5	2.9
CtBP-E1A blk	-9.0	.	13.0	-0.1	10.2	-6.0	4.3	2.0
D2 ag	-5.2	-4.8	0.3	2.7	0.5	-1.1	0.3	0.8
TRPML1 agonist	-0.4	0.9	-0.1	-0.5	0.3	4.0	0.7	-1.0
PINK1 modulator	2.0%	0.1%	-1.7%	0.1%	.	0.6%	4.4%	-1.4%

# Two compounds from above, reduced to PINK1 modulator.
nr	SMILES	PINK1 modulator
47	CCN(CC)c1nc2cc(C)ccc2cc1/C=C(\C#N)C(N)=O	4.4%
42	COCCn1cnc2c1c(=O)n(CC(=O)OCC(=O)NCCCc1ccccc1)c(=O)n2Cc1ccccc1	0.1%

# Next section.
49: O=c1[nH]nnc2c1cnn2-c1ccccc1
50: Cc1cccc(OCc2nnc(SCC(=O)N3CCN(C(=O)c4ccco4)CC3)n2C)c1C
51: Cc1ccc2[nH]c(O)c(N=O)c2c1
52: O=C(NCCCN1CCOCC1)Nc1ccc(Cc2ccc(NC(=O)NCCCN3CCOCC3)cc2)cc1
53: Cc1csc2ncnc(N3CCN(C(=S)Nc4ccc(C(F)(F)F)cc4)CC3)c12
54: COc1ccc(CNC(=O)CN2CCC(NC(=O)c3cccc(OC)c3)CC2)cc1
55: CC(C(=O)NCc1ccco1)n1nc(-c2ccccc2)c2cc(Cl)ccc21 (stereo unspecified)
56: NC(=S)N/N=C1\CC(n2nnn(-c3cccc(Cl)c3)c2=S)C2COC1O2 (stereo unspecified)
57: CCCCNC(=O)C1CC(c2cccc(F)c2)=NO1 (stereo unspecified)
58: O=C(NCc1cn2ccsc2n1)Nc1cccc(Cl)c1

Assay by compound	49	50	51	52	53	54	55	56	57	58
Six1-Eya2 blk	0.4	-0.9	-6.1	-2.1	-7.0	-13.3	0.0	-1.2	5.0	2.7
D2 PAM	-5.5	2.1&3.3	-6.0	-7.2	-28.3	-8.5	-10.0	-2.7	-10.8	-8.5
CtBP-E1A blk	-2.3	7.6	-1.1	8.2	.	-3.7	-1.3	-2.9	5.9	-4.0
D2 ag	-2.4	0.2	-5.6	-0.3	-3.9	-4.3	-7.1	-2.4	-1.5	-0.5
TRPML1 agonist	0.6	0.8	-0.6	-0.5	-0.5	0.7	0.1	-0.6	-0.8	-0.9
PINK1 modulator	-6.0%	11.2%[38.3 µM]	0.1%	-0.4%	4.2%	-1.2%	12.8%	1.3%	6.3%	1.4%
